High-throughput results deposited in PubChem BioAssay by Johns Hopkins Ion Channel Center.
KCNQ2 inh – KCNQ2 potassium channel inhibitors, primary screen, cell-based, CHO-K1, FluxOR thallium flux, B-score (AID 2156) | 20 min; stronger effect = lower value; only compounds with negative scores are shown here; some inactives read as strong as hits | B-score at 10 µM | Potassium voltage-gated channel subfamily KQT member 2 (Rattus norvegicus), O88943 | 310,000 tested, 1.1% active;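 active = fluorescence ratio B-score at most minus 3 library SDs, with starting brightness B-score within 2 library SDs, cut at about -5.5 in these data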
Target sequence (O88943 whole entry, looked up): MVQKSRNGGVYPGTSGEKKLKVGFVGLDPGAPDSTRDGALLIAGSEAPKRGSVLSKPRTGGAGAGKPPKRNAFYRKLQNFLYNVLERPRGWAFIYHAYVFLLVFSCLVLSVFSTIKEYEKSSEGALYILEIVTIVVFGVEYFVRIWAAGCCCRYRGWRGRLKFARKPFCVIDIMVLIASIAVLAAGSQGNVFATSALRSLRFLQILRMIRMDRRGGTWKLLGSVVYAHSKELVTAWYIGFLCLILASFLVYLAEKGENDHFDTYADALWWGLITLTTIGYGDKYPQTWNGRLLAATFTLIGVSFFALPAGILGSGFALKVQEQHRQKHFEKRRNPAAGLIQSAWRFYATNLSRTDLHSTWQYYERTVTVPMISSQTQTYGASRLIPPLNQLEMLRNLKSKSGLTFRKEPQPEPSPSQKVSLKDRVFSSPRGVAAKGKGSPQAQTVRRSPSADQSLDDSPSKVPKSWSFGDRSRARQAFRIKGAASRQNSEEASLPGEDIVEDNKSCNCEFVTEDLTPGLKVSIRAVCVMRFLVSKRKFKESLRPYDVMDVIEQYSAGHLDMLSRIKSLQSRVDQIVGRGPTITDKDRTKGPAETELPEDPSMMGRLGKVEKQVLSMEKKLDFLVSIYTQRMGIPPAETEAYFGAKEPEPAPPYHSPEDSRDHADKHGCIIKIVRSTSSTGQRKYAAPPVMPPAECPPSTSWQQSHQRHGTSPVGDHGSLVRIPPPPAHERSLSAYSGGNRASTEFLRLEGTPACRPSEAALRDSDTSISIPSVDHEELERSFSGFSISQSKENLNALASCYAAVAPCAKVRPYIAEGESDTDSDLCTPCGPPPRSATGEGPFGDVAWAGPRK
KCNQ2 inh baseline – further read-out of KCNQ2 inh, marked with its call; B-score; measured here: initial fluorescence intensity artifact check;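 brightness before thallium and not channel activity; 0 = typical well and far values either way flag optical interference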
* hit, by the source's call; i = inactive. This is a subset; rates above refer to the full screens.

Sample of the layout, 2 compounds:
KCNQ2 inh baseline | KCNQ2 inh | SMILES
-0.32 | i | O=C(O)c1ccccc1CSc1nc2ccccc2n1Cc1ccccc1C(=O)O
0.02 | i | CC(=O)Nc1sc(NC(=O)c2ccco2)nc1-c1cccs1

All compounds of this part (from the top)
KCNQ2 inh baseline | KCNQ2 inh | SMILES
-0.32 | i | O=C(O)c1ccccc1CSc1nc2ccccc2n1Cc1ccccc1C(=O)O
0.02 | i | CC(=O)Nc1sc(NC(=O)c2ccco2)nc1-c1cccs1
0.67 | i | Cc1nn(-c2ccc(F)cc2)c(Cl)c1/C=N/NC(=O)c1cccs1
0.67 | i | C1=Nc2ccccc2CN1c1ccccc1
-0.01 | i | CCOCCCn1c(SCc2ccccc2)nnc1-c1ccncc1
0.52 | i | C=CCn1c(COc2ccccc2)nnc1SCc1ccc(C#N)cc1
-1.2 | i | CCn1c(SCCC(=O)Nc2ccccc2)nnc1-c1ccc(OC)cc1
42 | i | COc1ccc(/C=C2\CCCc3c2nc2ccccc2c3C(=O)O)cc1OC
-0.01 | i | Cc1ccc(N(CN2C(=O)C3CC=CCC3C2=O)C(=O)c2ccco2)cc1Cl (stereo unspecified)
0.57 | i | CCOc1ccc2[nH]c(C)c(CN(C)C)c(=O)c2c1
0.8 | i | Cc1cccc(N(CC(=O)NCc2ccccc2)C(=O)CCC(=O)Nc2nccs2)c1
0.88 | i | CN(C)/C=C(\C(=O)c1ccc(F)cc1F)c1nnnn1-c1ccccc1
0.88 | i | NC(=O)C1(N2CCCCC2)CCN(C(=O)CSc2nc3ccccc3[nH]2)CC1
-0.79 | i | Fc1ccc(OCCCCCN2CCCC2)cc1
1.9 | i | O=c1cc(O)c(-c2ccc(Cl)c(Cl)c2)c(Cl)[nH]1
-1.2 | i | CC(C)(C)[C@H]1CCC(=O)N([C@H](CN=[N+]=[N-])Cc2ccccc2)CC1
-0.64 | i | O=C(C1CCC(=O)N(C2CCCC2)C1)N1CCN(Cc2cccc(Cl)c2)CC1 (stereo unspecified)
-0.08 | i | COC(=O)c1ccsc1NC(=O)CSc1nnnn1Cc1ccccc1
0.55 | i | O=C1CCN=C(Nc2ccc(F)cc2)N1Cc1ccccc1
-0.02 | i | CC(C)c1ccc(C(=O)NCCCN2CCN(CCCNC(=O)c3ccc(C(C)C)cc3)CC2)cc1
0.09 | i | CC(=O)c1cnn(-c2ccc(Cl)c(Cl)c2Cl)c1C
0.89 | i | Cc1cccc(OCC(=O)Nc2ccc(N3CCCC3)cc2)c1C
1.4 | i | CCC(=O)Nc1c(-c2ccc3ccccc3c2)nc2ccccn12
0.17 | i | C/C(Cn1cnc([N+](=O)[O-])n1)=N\NC(=O)c1cccnc1
-1 | i | COc1cc(CN2CCC(Cc3ccccc3)CC2)cc([N+](=O)[O-])c1O
-0.01 | i | Cc1ccc(-c2n[nH]c(=S)n2/N=C/c2ccc(C)o2)cc1
0.12 | i | CCOc1ccccc1Nc1cc(C)nc2nnnn12
-0.6 | i | CCOc1ccc(CNC(=O)C2CCN(S(=O)(=O)CC)CC2)cc1OC
0.61 | i | NNC(=O)CSc1nc(-c2ccccc2)cn1-c1ccccc1
-1.3 | i | Cc1[nH]n(-c2ccccc2)c(=O)c1/C=N/N(c1ccccc1)c1ccccc1
0.44 | i | COc1ccc(C)cc1-n1nnnc1SCC(=O)c1cc(C)n(Cc2ccco2)c1C
-0.37 | i | CC(C)(C)Nc1nc(N2CCCC2)nc(N2CCCC2)n1
1.7 | i | CCn1c(SCC(=O)Nc2ccccc2)nc2c1c(=O)n(C)c(=O)n2C
-1.1 | i | CCc1cccc(OCC(=O)Nc2ccc(S(=O)(=O)Nc3onc(C)c3C)cc2)c1
1.9 | i | CCN(CC)CC(O)COc1ccccc1C(=O)CCc1ccccc1 (stereo unspecified)
-1.1 | i | Cc1cc(C)n(CCN(C)C(=O)C2CCC(=O)N(CCc3cccc(F)c3)C2)n1 (stereo unspecified)
0.01 | i | COC(=O)/C=C(\Oc1ccccc1)C1(O)CCCCC1
0.37 | i | CC(C)CCN1CCN(Cc2cccn2-c2ccc(Cl)cn2)CC1CCO (stereo unspecified)
0.26 | i | C/C(CC(=O)Nc1ccc(N(C)C)cc1)=N\NC(=O)c1ccc(Cl)cc1Cl
-1.8 | i | COc1ccc(C2=NOC(C(=O)Nc3ccc4c(c3)OCO4)C2)cc1 (stereo unspecified)
-0.68 | i | CN(CC(=O)NC1CCCCCCC1)S(=O)(=O)c1cccc2cccnc12
0.52 | i | CC(C)N1CCN(Cc2ccc(-c3ccccc3)cc2)CC1CCO (stereo unspecified)
0.24 | i | CC(C)CC1=NN(C(=O)c2ccncc2)C(O)(C(F)(F)F)C1 (stereo unspecified)
0.61 | i | COc1ccc(N(C=O)C(C(=O)Nc2c(C)cccc2C)c2ccccc2)cc1 (stereo unspecified)
1.1 | i | CC1Cc2ccccc2N1C(=O)Cn1c(=O)oc2cc(S(=O)(=O)NC3CCCC3)ccc21 (stereo unspecified)
0.32 | i | CCOc1cc(S(=O)(=O)N2CCN(c3ccc(F)cc3)CC2)c(OCC)cc1-n1cnnn1
0.74 | i | O=C1c2ccccc2N2C(=O)c3ccccc3[C@H]2N1c1ccccc1
-0.12 | i | CSc1cccc(NC(=O)C2CCN(S(=O)(=O)c3cnc[nH]3)CC2)c1
0.1 | i | O=C(Nc1cccc(-c2nc3ncccc3o2)c1)c1cc2ccccc2o1
1.5 | i | CCOc1cc(/C=N/NC(=O)N/N=C/c2ccc(O)c(OCC)c2)ccc1O
-0.99 | i | COC(=O)c1ccncc1C(=O)Nc1ccc(Oc2ncc(C(F)(F)F)cc2Cl)cc1
0.65 | i | CCOC(=O)CN(C(=O)CSc1nnc(Cc2ccccc2)n1-c1ccc(C)cc1)c1ccccc1
-2.3 | i | CSc1nn2c(C(F)(F)F)cc(C(F)(F)F)nc2c1C(=O)O
-0.44 | i | O=C(CSc1ccccc1)Nc1cc(Cl)ccc1Oc1ccccc1
-1.2 | i | Cc1ccc2nc(C(O)C(O)c3nc4ccc(C)cc4[nH]3)[nH]c2c1 (stereo unspecified)
0.56 | i | O=[N+]([O-])c1c(-c2cn[nH]c2)n[nH]c1-c1cn[nH]c1

(further entries)
KCNQ2 inh baseline | KCNQ2 inh | SMILES
1.9 | i | CCCN(CC(=O)Nc1ccc(NC(C)=O)cc1)CC(=O)Nc1ccc(F)c(F)c1F
1.3 | i | CC1=C(C)CC(C(=O)NCCc2ccccc2)C(C(=O)O)C1 (stereo unspecified)
1.1 | i | Cc1ccc(C(C(=O)NC2CCCC2)N(C(=O)Cc2cccs2)c2ccc3c(c2)OCCO3)cc1 (stereo unspecified)
-0.58 | i | COc1cccc(CNCc2ccccc2Br)c1OC
0.07 | i | COc1cc(/C=N/Nc2nncn2/N=C/c2ccc(O)c(OC)c2)ccc1O
-0.64 | i | O=C(Nc1ccccc1C(=O)NCc1ccccc1)c1ccccc1Br
-0.12 | i | CCN(CC)S(=O)(=O)c1ccc2[nH]cc(C(=O)NC3CC3)c(=O)c2c1
-1.5 | i | CCN(CC)S(=O)(=O)c1cccc(-c2nnc(SCCCC(=O)c3ccc(F)cc3)o2)c1
1.6 | i | Cc1ccc(-n2c(COc3cccc(C)c3)n[nH]c2=S)cc1
-1.5 | i | Cc1ccc(C)c(-c2cc(C(=O)N/N=C/c3cccnc3)c3ccccc3n2)c1
-2.1* | -7.7* | CCC(CO)n1c(SCc2cc(=O)oc3cc(C)ccc23)nc2ccccc2c1=O (stereo unspecified)
-0.91 | i | O=c1[nH]c(-c2ccccc2Cl)nc2c1sc(=S)n2-c1ccccc1
-0.44 | i | O=C(CNS(=O)(=O)c1ccccc1)N1CCCC1
-0.12 | i | Cc1ccc(CNC(=O)CCn2ccc3cc(S(=O)(=O)N4CCCC4)ccc32)cc1
-0.62 | i | CCC(NC(=O)c1cccc(Cn2cc([N+](=O)[O-])cn2)c1)c1ccc(C(C)C)cc1 (stereo unspecified)
-1.1 | i | Cc1ccc(/C=N/NC(=O)c2ccccc2OCc2cccc(Br)c2)o1
-0.9 | i | O=C(NN1C(=O)c2ccccc2C1=O)c1ccncc1
0.08 | i | O=C(Nc1nc2nc(-c3ccccc3)cc(-c3ccccc3)n2n1)c1ccco1
-1.4 | i | CCn1c(NCc2ccc(OC)cc2)nc2ccccc21
5.9 | i | N#Cc1ccc(NC(=O)CSc2cn[nH]n2)cc1
0.6 | i | CC(C)OC(=O)CC12CN3CC(CC(=O)OC(C)C)(CN(C1)C(=O)c1ccccc1C3=O)C2=O
-0.16 | i | O=C(NCc1ccc(Cl)cc1)C1CCN(S(=O)(=O)N2CCOCC2)CC1
1.2 | i | CN(C)/C=C(\C=O)c1cccc(Cl)c1
0.03 | i | CC(C)CN(CCCNC(=O)CN1C(=O)COc2ccc(S(=O)(=O)N3CCCCCC3)cc21)CC(C)C

Three entries picked at random from the list so far:
KCNQ2 inh baseline | KCNQ2 inh | SMILES
0.24 | i | CC(C)CC1=NN(C(=O)c2ccncc2)C(O)(C(F)(F)F)C1 (stereo unspecified)
-1.1 | i | Cc1cc(C)n(CCN(C)C(=O)C2CCC(=O)N(CCc3cccc(F)c3)C2)n1 (stereo unspecified)
1.9 | i | CCCN(CC(=O)Nc1ccc(NC(C)=O)cc1)CC(=O)Nc1ccc(F)c(F)c1F

New compounds follow
KCNQ2 inh baseline | KCNQ2 inh | SMILES
1.6 | i | CCOC(=O)c1c(S(=O)(=O)NCCc2ccc(OC)c(OC)c2)c(C)n(C)c1C
-1.4 | i | CCSc1nnc(-c2ccc(S(=O)(=O)NCc3cccs3)cc2)o1
0.9 | i | CCCC(=O)Nc1ccc2nc(SCC(=O)Nc3ccc(N4CCOCC4)c(Cl)c3)sc2c1
0.56 | i | CNC(=O)c1nnc(Cc2ccc(Cl)cc2)o1
1.9 | i | COc1cc(NC(=O)COC(=O)c2cnccn2)c(C)cc1[N+](=O)[O-]
1.4 | i | CN(C)c1ccc(C(=O)N2CC(=O)N(CCc3ccccc3)C(=O)C2)cc1
-0.09 | i | CCC(c1nnnn1Cc1ccco1)N(Cc1ccccc1OC)Cc1cc2cc(C)ccc2[nH]c1=O (stereo unspecified)
1.3 | i | CCCn1c(=O)c(C(=O)Nc2cccc(C)c2)c(O)c2ccccc21
0.06 | i | CCOCCCNC(=O)c1ccc2c(c1)OCO2
-0.84 | i | O=[N+]([O-])c1ccccc1S(=O)(=O)c1ccccc1
2.7 | i | O=c1ccc(/C=C/c2ccccc2)nn1Cc1ccc(Cl)cc1Cl
-1.1 | i | CC1(C)C2([N+](=O)[O-])CN3CC1([N+](=O)[O-])CN(C2)C3C(O)C(O)C(O)CO (stereo unspecified)
-0.83 | i | O=C(NNC1=Nc2ccccc2SC1)c1ccc(F)cc1
-0.56 | i | CCOC(=O)c1c(CN2CCOCC2)n(-c2ccccc2)c2ccc(O)cc12
0.14 | i | CCCc1cc(=O)[nH]c(Nc2cc(OC)ccc2OC)n1
-0.79 | i | Cn1cnnc1SC(C(=O)Nc1cc(Cl)cc(Cl)c1)c1ccccc1 (stereo unspecified)

Compound profiles, as listed above:
CCOCCCNC(=O)c1ccc2c(c1)OCO2 is listed with KCNQ2 inh baseline = 0.06; KCNQ2 inh = i
CCCc1cc(=O)[nH]c(Nc2cc(OC)ccc2OC)n1 is listed with KCNQ2 inh baseline = 0.14; KCNQ2 inh = i

Continued:
KCNQ2 inh baseline | KCNQ2 inh | SMILES
1.9 | i | COc1ccc(C(CNC(=O)c2ccc(C)c(S(=O)(=O)Nc3ccccc3OC)c2)N2CCCC2)cc1 (stereo unspecified)
-1 | i | CN(C(=O)CSc1nc(N)nn1-c1ccccc1)c1ccccc1
-0.01 | i | CC(C)CNC(=S)N1CCN(c2nc(-c3ccc(Cl)cc3)cs2)CC1
-0.63 | i | COc1ccc(OC)c(NC(=O)c2ccc(NC(C)=O)cc2)c1
-1 | i | O=S(=O)(c1ccccc1)c1nc(Nc2cccc(O)c2)sc1Cl
-1.2 | i | N#Cc1c(N(CCO)CCO)nc(N)c2c(N)nc3c(c12)CC(=O)N3Cc1cccs1
0.77 | i | Cc1ccc(S(=O)(=O)N(C)C)cc1NC(=O)COC(=O)CNC(=O)c1cccs1
-0.73 | i | CCS(=O)(=O)N1CCC(NC(=O)C(Cc2cccc(OC)c2OC)NC(C)=O)CC1 (stereo unspecified)
0.15 | i | Cn1c(=O)cc(OCC(=O)NCc2cccnc2)c2ccccc21
1.1 | i | O=C(CSc1nnc(-c2cccnc2)o1)OC1CCCCC1
-0.75 | i | O=C1CCCN1S(=O)(=O)c1ccc(F)cc1
0.41 | i | CS(=O)(=O)Nc1ccc(C2=NN(S(=O)(=O)c3ccccc3)C(c3cccs3)C2)cc1 (stereo unspecified)
1.4 | i | Cn1ccsc1=NC(=O)c1ccc(=O)[nH]c1
0.2 | i | COC(=O)c1ccc(COc2nc(C)cc(C)c2C#N)o1
0.01 | i | COc1ccccc1/C=N/N(C(C)=O)c1nc(-c2ccc(F)cc2)cs1
-0.6 | i | O=C(Nc1ccc(-c2csc(Nc3cccc(C(F)(F)F)c3)n2)cc1)c1cccc(C(F)(F)F)c1
-0.3 | i | Cc1ccc(/C=N/NC(=O)c2ccc(-c3ccccc3)cc2)o1
1.1 | i | c1ccc(CSc2nnc(-c3sccc3-n3cccc3)o2)cc1
-1.4 | i | O=C(Nc1ccccc1N1CCOCC1)C1CCCCN1S(=O)(=O)c1ccccc1 (stereo unspecified)
-0.71 | i | O=C(NCc1ccco1)c1scc2c1OCCO2
-1.4 | i | CC[C@@]1(c2ccccc2C)C(=O)N(C(=O)OC)N1C(=O)OC

A portion of the results above, as a working copy:
KCNQ2 inh baseline | KCNQ2 inh | SMILES
-0.71 | i | O=C(NCc1ccco1)c1scc2c1OCCO2
-1.4 | i | CC[C@@]1(c2ccccc2C)C(=O)N(C(=O)OC)N1C(=O)OC
